# Screens (PubChem)
# miR-21 reporter = miR-21 reporter, rising signal; HeLa miR-21 FLuc reporter, luciferase, 48 h; Potency, µM (top dose mostly 38.3 µM), inactives show at the top dose reporter change, positive = more light; 340,000 tested, under 10 active; active = well fitted rising curve with a large enough effect; inconclusive = small, poorly fitted or top-dose-only effect; inactive = no such curve, though single readings can be large or run the other way;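 also: % of control where 0% means no effect; miR-21 action dims this reporter so a rising signal means less miR-21 action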
#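 Compounds were titrated across several concentrations (up to approximately 40 uM) and incubated 48 hours with HeLa miR-21-FLuc reporter cells (miR-21 target sequence downstream of FLuc, endogenous miR-21). Readout was firefly luciferase luminescence after lytic detection reagent.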
# Rango dissoc inh = inhibitors of RanGTP-induced Rango-importin beta complex dissociation | O95149+P62826 | Biochemical FRET Rango-importin beta, RanGTP-induced dissociation | Potency, µM (top dose mostly 46.1 µM), inactives show at the highest dose activity change, negative = inhibition | hit rate 0.071% among 340,000; active means falling FRET ratio curve, often poorly fitted, with flat reads before Ran was added; inconclusive means other falling curves, or compound fluorescence or quenching; inactive means flat or rising ratio curve;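 also: potency is read from the fitted curve at half-maximal effect; % of control where 0% means no effect; nearly all actives have a fitted effect of over 45% in size; -100% = wells without RanGTP and RCC1; the record marks most hits as doubtful in a second field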
#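 Rango (0.1 uM)–importin beta (0.25 uM) complex; RanGTP-RCC1 trigger; 45 min RT; CFP/YFP FRET read.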
# GLA inh pH 4.5 = alpha-galactosidase A (human) inhibition, pH 4.5; purified enzyme, 4-MU-alpha-Gal fluorescence, pH 4.5; activity change, negative = inhibition, % at 105 µM; 230,000 tested, under 10 active; inconclusive = small, poorly fitted or top-dose-only inhibition, or a rising curve; inactive = flat fitted curve, though single readings scatter; no compound was filed as active;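 also: 0% = full activity with enzyme and -100% = basal without enzyme; dose as in the result columns while the protocol names 77 µM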
# Target sequence (P06280 whole entry, looked up): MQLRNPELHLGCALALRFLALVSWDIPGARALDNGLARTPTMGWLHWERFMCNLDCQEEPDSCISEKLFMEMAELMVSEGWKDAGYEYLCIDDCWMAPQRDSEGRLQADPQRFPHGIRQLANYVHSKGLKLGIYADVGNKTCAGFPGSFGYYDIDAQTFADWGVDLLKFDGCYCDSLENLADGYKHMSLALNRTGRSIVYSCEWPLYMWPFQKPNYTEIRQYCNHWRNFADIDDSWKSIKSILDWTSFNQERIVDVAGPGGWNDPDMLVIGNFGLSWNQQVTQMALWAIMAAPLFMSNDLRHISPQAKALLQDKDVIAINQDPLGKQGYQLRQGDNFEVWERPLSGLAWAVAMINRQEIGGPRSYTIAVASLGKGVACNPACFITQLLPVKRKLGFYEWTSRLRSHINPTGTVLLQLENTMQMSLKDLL
# Rango complex inh = prevents formation of the Rango-importin beta complex; Q14974; Rango CFP/YFP FRET sensor + importin beta, 45 min; Potency, µM (titrated, usually from 92.2 µM), for inactives: at the highest dose inhibition of complex formation; hit rate 0.031% among 340,000; active = rising FRET ratio curve, often small or poorly fitted; inconclusive = mostly compound fluorescence or quenching in the first reads; inactive = flat curves in all reads;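 also: potency is read from the fitted curve at half-maximal effect; 0% = DMSO wells and 100% = buffer wells lacking importin beta; nearly all actives have a fitted effect of over 15% in size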
#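 FRET biosensor (snurportin 1 IBB flanked by EYFP and cerulean), 50 nM, with compound 5 min, then 0.125 microM importin beta in PBS, 1 mM DTT, 0.02% Tween-20, 0.1% BSA. CFP/YFP ratio read after 45 min at room temperature; pre-read flags interference.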
# * marks the source's active call; other numbers are inactive results; ? = inconclusive; nt = no result given; & = joins results of further samples; [ ] = dose if it differs, or a comment.
molecule	Rango dissoc inh	miR-21 reporter	Rango complex inh	GLA inh pH 4.5
C=C(C)C1CC=C(C)/C(=N/NC(=O)CNc2ccc(C)cc2C)C1 (configuration not stated)	-14%	-14%	-1.2%	-2
CCCCCCC(=O)Nc1nnc(CC)s1	3%	-8%	-4.1%	5
CC1CCCCN1S(=O)(=O)Cc1ccccc1Cl (configuration not stated)	-12%	-7%	-0.5%	nt
N#Cc1ccc(OCC(O)CS(=O)(=O)c2ccc(F)cc2)cc1 (configuration not stated)	-12%	2%	-5.3%	-5
NC(=O)c1c(NC(=O)CN2CCOCC2)sc2c1CCC2	2%	-22%	2.6%	0
CN1CCN(c2ccc(NC(=O)c3cccc(S(=O)(=O)N4CCCC4)c3)cc2)CC1	16%	nt	1.8%	nt
CCOc1ccc(OCC(=O)NCCc2nc3ccccc3[nH]2)cc1	-3%	-4%	0.7%	6
Cc1ccc(-n2[nH]c(C)c(C=Nc3ccc(Br)cn3)c2=O)cc1	-1%	-4%	1.6%	7
COc1ccccc1OCCNC(=O)c1ccc2c(c1)OCCO2	-4%	nt	-5.6%	nt
CCC(C)NC(=O)C1CCC(=O)N(c2ccc3c(c2)OCO3)C1c1ccc(OC)cc1 (configuration not stated)	7%	0%	-1.9%	-4
CC(C)c1ccc(OCC(=O)NNC(=O)c2cnccn2)cc1	0%	-1%	0.1%	5
COc1ccccc1CNC(=O)c1cc2c(C)nn(Cc3ccc(F)cc3)c2s1	4%	-10%	-3.2%	-1
Cc1ccc(F)cc1NC(=O)c1sc2ncn(CC(=O)N3CCN(c4ccccn4)CC3)c(=O)c2c1C	10%	0%	3.1%	nt
CCOC(=O)C1CCN(C(=O)Cn2nc(C)n3nc(-c4ccc(CC)cc4)cc3c2=O)CC1	1%	1%	-0.9%	nt
CC(C)[C@H](NC(=O)C1CCN(C(=O)[C@H](Cc2ccccc2)NC(=O)OC(C)(C)C)CC1)C(=O)O	-10%	-1%	-1.9%	nt
CC(C)C[C@H](NC(=O)OCC1c2ccccc2-c2ccccc21)C(=O)O	1%	nt	2.5%	nt
C=CCNC(=O)c1ccc(Cn2cc(C(F)(F)F)ccc2=O)cc1	0%	1%	-3.3%	4
Cc1nc(-c2ccc(S(=O)(=O)Nc3cc(F)ccc3F)cc2)co1	-2%	-9%	-3.4%	nt
O=C(CNC(=O)c1cccc(F)c1)OCCOc1cccc(Cl)c1	8%	nt	0.3%	nt
O=C(/C=C/c1ccc2c(c1)OCO2)c1ccc(F)cc1	-15%	-32%	-1.2%	0
Oc1oc(-c2cccc3ccccc23)nc1/C=N/c1nccs1	?	-8%	4.3%	-7
COc1ccccc1C(=O)n1nc(C)cc1C	-6%	-3%	-0.8%	13
CCOc1cc(N2CCOCC2)c(OCC)cc1NC(=O)CN1C(=O)NC2(CCCCC2)C1=O	5%	nt	2.7%	nt
O=C(N/C(=C\c1cn(-c2ccccc2)nc1-c1ccccc1)C(=O)N1CCOCC1)c1ccccc1	nt	-5%	nt	0
O=C(Cc1ccccc1)Nc1ccccc1C(=O)N1CCCCC1	26%	-9%	1.8%	nt
O=C(Oc1c(CN2CCOCC2)cc(Cl)c2cccnc12)c1ccccc1	-6%	?	-3.0%	-3
Cc1ccc2nc3sc(C(=O)Nc4ccc(N5CCOCC5)cc4)c(N)c3cc2c1	nt	-14%	nt	-4
COc1cccc(=O)c2c(C)oc(C)c12	?	-1%	?	5
NC(=O)c1ccc(=O)n(Cc2ccc(F)c(F)c2)c1	-5%	-2%	1.7%	nt
Cc1cc(C)c2nc(N)sc2c1	-11%	-30%	-1.9%	-3

# Random excerpt: two entries already listed
molecule	Rango dissoc inh	miR-21 reporter	Rango complex inh	GLA inh pH 4.5
CC(C)[C@H](NC(=O)C1CCN(C(=O)[C@H](Cc2ccccc2)NC(=O)OC(C)(C)C)CC1)C(=O)O	-10%	-1%	-1.9%	nt
CC(C)c1ccc(OCC(=O)NNC(=O)c2cnccn2)cc1	0%	-1%	0.1%	5

# Continuation:
molecule	Rango dissoc inh	miR-21 reporter	Rango complex inh	GLA inh pH 4.5
O=C(COc1ccc(Cl)cc1)NCc1ccncc1	5%	3%	2.5%	-7[21.1 µM]
Cc1cc2cc(CCNC(=O)C(=O)c3c[nH]c4ccccc34)c(=O)[nH]c2cc1C	-20%	24%	-1.2%	-22
O=C(CP(=O)(c1ccccc1)c1ccccc1)N1CCOCC1	-10%	22%	-0.7%	-10
Cc1ccc(-n2ncc(C(=O)NC3CC3)c2C2CCN(C(=O)OC(C)(C)C)CC2)c(C)c1	-11%	0%	6.6%	nt
CCOc1cccc(C(=O)N(Cc2ccco2)C2CCS(=O)(=O)C2)c1 (configuration not stated)	-5%	-6%	0.3%	1
COC(=O)CN(c1ccccc1[N+](=O)[O-])S(=O)(=O)c1ccccc1	-4%	0%	-0.8%	6
Cc1ccc(NC(=O)CN(C)C(=O)COC(=O)CNS(=O)(=O)c2ccc(F)c(F)c2F)cc1	?	nt	-0.3%	nt
CCOC(=O)Cc1csc2nc3sc(C)c(C)c3c(=O)n12	2%	-4%	-5.7%	3
Cc1cc(-c2cc(-c3ccc(Cl)cc3)on2)nc(NC2CCCC2)n1	30%	-1%	0.5%	8
COc1ccc(OCC(=O)Nc2cc(OC)ccc2N2CCCCC2)cc1	15%	1%	-2.2%	nt
Cc1ccc(NC(=O)c2ccc3snnc3c2)cc1C	-14%	-60%&-43%	-3.5%	nt
CNCc1ccccc1Sc1cccc(O)c1	3%	-8%	0.7%	4
COc1ccc(/C=N/N2C(=O)CN(C(=O)c3ccccc3)C2c2ccc(OC)cc2)cc1 (configuration not stated)	7%	-2%	4.9%	-4
CC(=O)Oc1cccc(C(=O)Nc2ccccc2C(=O)N2CCCC2)c1	10%	-1%	0.8%	nt
CC(C)Cn1nc(NS(=O)(=O)c2ccccc2)c2cc3ccccc3nc21	?	-1%	7.0%	-7
COc1ccc(-c2cc(C(=O)N/N=C/c3cccnc3)c3ccccc3n2)c(OC)c1	-15%	nt	0.5%	nt
Cc1cc(C(=O)O)c(CSCc2cc(C(=O)O)oc2C)o1	-4%	-1%	-1.1%	8
Cc1ccc2nc(SC(C)C(=O)NCc3ccc4c(c3)OCO4)[nH]c2c1 (configuration not stated)	4%	-4%	0.0%	1
Cc1cccc(NC(=O)C2SC(=Nc3c(C)cccc3C)C(C(=O)N3CCOCC3)=C2N)c1 (configuration not stated)	-10%	3%	-0.7%	1
Cn1cc(/C=C2/SC(=O)N(c3ccccc3)C2=O)c2ccccc21	-27%	-29%	?	7
COc1cc2c(cc1OC)CN(C(=O)CCOc1ccccc1C)CC2	6%	17%	?	nt
COc1ccc(CCN(C)CC(=O)Nc2ccc(F)c(Cl)c2)cc1OC	26%	6%	?	nt
CCNc1nnc(SCC(=O)c2c(N)n(C3CC3)c(=O)[nH]c2=O)s1	11%	nt	0.6%	nt
CCC(=O)N1CCN(c2ccc(NC(=O)c3ccc4c(c3)OCO4)cc2)CC1	-3%	6%	4.0%	2
CCOC(=O)C1CCCN(Cc2c(C(=O)N3CCCCC3)nc3c(C)cccn23)C1 (configuration not stated)	-10%	-1%	-1.8%	2
COc1cc2ccccc2cc1C(=O)Nc1cccnc1	2%	-50%	0.9%	1
COCCc1ncc(CN2CCCCC2C(=O)Nc2ccc(Oc3ccccc3)nc2)cn1 (configuration not stated)	-5%	-6%	-1.3%	nt
O=C(Nc1cccc2c1[nH]c1ccccc12)C(F)(F)F	-14%	-10%	2.4%	5
CCCNS(=O)(=O)c1ccc(OCC(=O)NCCCOC)cc1	1%	-9%	3.9%	3
Cc1ccc(SCC(=O)NC(=O)NC(C)C)c(C)c1	1%	-4%	-0.3%	-4
O=C(Nc1cccc(C(=O)O)c1)/C(=C\c1ccc2c(c1)OCO2)NC(=O)c1ccc(Br)cc1	17%	2%	0.7%	-3
O=C(NCCc1ccccc1)C1CCC(CNS(=O)(=O)c2cccc3cccnc23)CC1 (configuration not stated)	1%	-19%	1.0%	-9
COc1ccc(NCc2nnc(SCC(=O)NCc3ccccc3)n2-c2ccccc2OC)cc1	-6%	0%	4.7%	3
CCCCN(C(=O)CSCC(=O)Nc1ccc(C)cc1)c1c(N)n(CCCC)c(=O)[nH]c1=O	?	nt	?	nt
COc1cccc(-c2nc3ccc(C(=O)NC(C)Cc4cccnc4)cc3o2)c1 (configuration not stated)	4%	-25%	-0.5%	nt
Cc1cc(N2CCC(C)CC2)nc(-c2ccccc2O)n1	-9%	-2%	2.6%	-7
N#C/C(=C\c1ccccc1[N+](=O)[O-])C(=O)NC1CCCCC1	13%	-6%	?	2
C[C@@]12C(=O)N(CCO)CC(=O)N1[C@H](/C=C/c1ccccc1)[C@@H]1C(=O)N(c3ccccc3)C(=O)[C@@H]12	1%	-1%	-0.9%	nt
COC(=O)c1ccc(NC(=O)CSCc2ccc(C)cc2)cc1	?	-3%	-0.5%	-9
COc1cc2c(C#CCCCO)c(-c3ccc(C#N)cc3)oc(=O)c2cc1OC	?	nt	?	nt
CC(C)c1onc(C(=O)N2CCN(Cc3ccccc3)CC2)c1[N+](=O)[O-]	-5%	0%	-0.1%	9
COc1ccc(OC)c(CCNC(=O)Cn2nc(C)c3c(C)n(-c4ccc(C)cc4)nc3c2=O)c1	2%	24%	2.8%	nt
CSc1ccccc1OCc1cc(C(=O)NC(C)Cn2cncn2)no1 (configuration not stated)	-1%	-14%	1.0%	nt
COc1ccc(C(CNC(=O)c2cccc(S(=O)(=O)NCc3ccccc3)c2)N(C)C)cc1 (configuration not stated)	1%	-11%	-2.1%	nt
CCN(C[C@H]1N[C@@](C)(C(=O)OC)[C@H]2C(=O)N(C)C(=O)[C@@H]12)C(C)=O	1%	nt	-1.3%	nt
CCOC(OCC)c1ccc(/C=C\c2nccc(N)n2)cc1	-11%	-54%	1.8%	nt
O=C(C1CCCN(S(=O)(=O)c2cccnc2)C1)N1CCN(c2ccccn2)CC1 (configuration not stated)	?	-9%	-0.8%	-1
Cc1c(C(=O)Nc2ccc(S(=O)(=O)NCC3CCCO3)cc2)cccc1[N+](=O)[O-] (configuration not stated)	1%	1%	4.8%	-14
Cc1ccc(C(=O)c2no[n+]([O-])c2C(=O)c2ccc(C)cc2)cc1	-2%	0%	-2.9%	-1
COc1ccc(NS(=O)(=O)c2csc(C(N)=O)c2)cc1	-1%	-1%	-0.3%	nt
COc1ccc(Cn2nnnc2C(c2cccnc2)N2CCN(c3ccc(O)cc3)CC2)cc1 (configuration not stated)	13%	-10%	2.5%	-3
CSCCC(NC(=O)c1ccc(C)o1)C(=O)O (configuration not stated)	15%	0%	?	-2
CC(OC(=O)c1cc(S(=O)(=O)N2CCOCC2)ccc1F)C(=O)NC1CCCCC1C (configuration not stated)	10%	1%	0.2%	nt
CS(=O)(=O)N(Cc1ccc(Cl)cc1)c1ccc(C(=O)NCC2CCCO2)cc1 (configuration not stated)	0%	6%	-0.7%	-7
NC(=O)C1CCN(C(=O)c2ccco2)CC1	22%	0%[7.66 µM]	3.5%	2
COc1ccc2c(c1)C1=NN(/C(C)=C/C(C)=O)C(c3ccc(F)cc3)C1CC2 (configuration not stated)	-16%	-42%	-8.0%	0
COc1ccc(CC(=O)N/N=C/c2ccc(-c3ccc(F)cc3)o2)cc1OC	-4%	-4%	3.4%	-9
Fc1ccc(C2CCNCC2COc2ccc3c(c2)OCO3)cc1 (configuration not stated)	2%	21%	-0.7%	nt
CCOC(=O)CN1C(=O)CCSc2ccc(Cl)cc21	25%	-6%	-0.1%	4
COc1ccc(CCNC(=O)c2ccc(OCc3c(C)noc3C)cc2)cc1OC	2%	nt	-0.4%	nt
COC(=O)c1c(C)oc(C)c1S(=O)(=O)NCc1ccc(Cl)cc1Cl	-24%	-6%	3.9%	-7
Cc1cc(C)n(CCCNC(=O)C2CCC(=O)N(CCc3ccc(Cl)cc3)C2)n1 (configuration not stated)	14%	5%	0.6%	nt

# These rows are one share of the data (hit frequency here may not be typical).
